# Screening results (PubChem BioAssay)
# VDR inh: Inhibitors of the vitamin D receptor (VDR): qHTS. Vitamin D3 receptor (Homo sapiens), P11473. VDR-SRC2-3 peptide fluorescence polarization, 2 h. Potency, µM, for inactives: max response, negative = inhibition, most hits filed as inhibitors. 400,000 tested, 0.93% active. AID 504847, 2011; active = well fitted inhibition curve with a large enough effect; inconclusive = small, poorly fitted or top-dose-only effect, or another doubt; inactive = no such curve, though single readings can be large or run the other way; also: series mostly up to about 120 µM
# Target sequence (P11473 whole entry, looked up): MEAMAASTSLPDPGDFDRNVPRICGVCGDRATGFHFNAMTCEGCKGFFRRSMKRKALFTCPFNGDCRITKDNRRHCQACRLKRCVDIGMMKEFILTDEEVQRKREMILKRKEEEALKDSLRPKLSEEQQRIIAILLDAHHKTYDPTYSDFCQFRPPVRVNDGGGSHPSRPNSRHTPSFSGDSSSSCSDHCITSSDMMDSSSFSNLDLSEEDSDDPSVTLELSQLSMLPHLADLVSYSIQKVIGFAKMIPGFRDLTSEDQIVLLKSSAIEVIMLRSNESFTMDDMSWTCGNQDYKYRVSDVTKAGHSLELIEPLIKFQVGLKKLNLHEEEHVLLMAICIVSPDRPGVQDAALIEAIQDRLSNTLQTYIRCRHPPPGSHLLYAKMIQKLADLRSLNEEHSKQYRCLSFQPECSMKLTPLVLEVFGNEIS
#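 Fluorescence polarization assay measuring small-molecule disruption of VDR binding to the coregulator peptide SRC2-3. Compounds were pin-transferred (23 nl) into the reagent mix and incubated 2 h at room temperature before reading.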
# The depositor's hits bear a star; u = inconclusive. % is scaled to controls: 0 for no effect and ±100 for the full control effect; potency is read from the fitted curve at half-maximal effect.
SMILES,VDR inh
CC(=O)Nc1ccc(NC(=O)CSC2=NS(=O)(=O)c3ccccc3N2)cc1,-9%
CCc1cccc(NS(=O)(=O)c2ccc3c(c2)NC(=O)CC(=O)N3)c1,2%
CSc1nc(C)cc(SCCO)n1,-2%
O=C(N=C1SC2CS(=O)(=O)CC2N1c1ccc(Cl)c(Cl)c1)C1CCCO1 (centres undefined),-17%
N=C1C(c2nc3ccccc3[nH]2)=C(O)CN1c1ccc(F)cc1,9%
O=C(NCCN1CCOCC1)C(Sc1ccccc1)c1ccccc1 (centres undefined),-12%
Cc1ccc(-c2noc(-c3ccccc3F)n2)cc1,3%
COC(=O)c1ccccc1NS(=O)(=O)c1cc2c(cc1C)N(C)CCO2,-9%
COC(=O)c1ccc(NS(=O)(=O)c2ccc3[nH]c(=O)oc3c2)cc1,12%
COc1ccc(OC)c(CNC(=O)C2CCN(S(=O)(=O)N3CCCC3)CC2)c1,1%
O=C(COc1ccc(Cl)cc1Cl)Nc1nnc(C2=COCCO2)o1,23%
COc1cc(C(=O)COC(=O)c2cccs2)cc(OC)c1OC,-12%
COC(=O)c1cc(C(=O)OCC(=O)NC2CCCC2)cc([N+](=O)[O-])c1,-13%
N/C(=N\OC(=O)c1cccc(F)c1)c1ccccn1,-3%
COc1ccc(NC(=O)n2ncc3c(C)cccc32)cc1OC,10%
CCOC(=O)c1c(S(=O)(=O)NCC(=O)N(C)c2ccc(C)cc2)c(C)n(C)c1C,9%
Cc1ccc(S(=O)(=O)NCCC(=O)OCC(=O)N2CCCC2=O)cc1,-18%
COc1ccc(S(=O)(=O)N2CCOCC2)cc1NC(=O)COC(=O)c1ccc([N+](=O)[O-])s1,-2%
COc1ccc(S(=O)(=O)NCC(c2ccco2)N2CCN(c3ccccc3)CC2)cc1OC (centres undefined),14%
COc1ccc(-c2cc(C(F)F)n3ncc(C(=O)Nc4ccc(C(=O)N5CCOCC5)cc4)c3n2)cc1,2%
CC1CN(C(=O)c2cc3cc([N+](=O)[O-])ccc3oc2=O)CC(C)O1 (centres undefined),-13%
O=C(NCC1CCCO1)c1cc2ccccc2nc1Cl (centres undefined),-10%
Cc1ccc(S(=O)(=O)c2ccc(-n3nc(C)cc3N)cc2)cc1,7%
CC(=O)c1ccc(OCCCC(=O)N2CCN(S(=O)(=O)c3cc(C)ccc3C)CC2)cc1,0%
O=C(OC(C(=O)NC1CCCCC1)c1ccccn1)c1cccs1 (centres undefined),-12%
COC(=O)c1cc(S(=O)(=O)Nc2cccc(C)c2C)cn1C,14%
COc1ccc(C(=O)Nc2ccc(C(=O)N3CCC(C)CC3)cc2)cc1OC,4%
COc1ccccc1N=Cc1c(C)c(C#N)c2[nH]c3ccccc3n2c1=O,22%
CCOC(=O)c1ccc(NC(=O)CCOc2ccc(C)cc2)cc1,-9%
CC(C)c1ccccc1-n1c(SCC(=O)c2ccc3c(c2)NC(=O)CO3)nc2ccccc2c1=O,-8%

# Six compounds out of the list, arranged by formula weight, ascending.
SMILES,VDR inh
O=C(NCC1CCCO1)c1cc2ccccc2nc1Cl (centres undefined),-10%
CCOC(=O)c1ccc(NC(=O)CCOc2ccc(C)cc2)cc1,-9%
COc1ccccc1N=Cc1c(C)c(C#N)c2[nH]c3ccccc3n2c1=O,22%
COc1ccc(C(=O)Nc2ccc(C(=O)N3CCC(C)CC3)cc2)cc1OC,4%
CC(=O)c1ccc(OCCCC(=O)N2CCN(S(=O)(=O)c3cc(C)ccc3C)CC2)cc1,0%
CC(C)c1ccccc1-n1c(SCC(=O)c2ccc3c(c2)NC(=O)CO3)nc2ccccc2c1=O,-8%

# Taken from above.
# For VDR inh, Cc1ccc(S(=O)(=O)c2ccc(-n3nc(C)cc3N)cc2)cc1 reads 7%
# For VDR inh, COc1ccc(C(=O)Nc2ccc(C(=O)N3CCC(C)CC3)cc2)cc1OC reads 4%
# For VDR inh, COc1ccccc1N=Cc1c(C)c(C#N)c2[nH]c3ccccc3n2c1=O reads 22%

# Continued:
SMILES,VDR inh
Cc1cccc(CSC2=NCCN2C(=O)C2CC2)c1,14%
O=C(c1ccc(CNc2c(NC3CCCCC3)c(=O)c2=O)cc1)N1CCc2ccccc21,7%
Cc1ccc(Nc2nn3c(=O)c4cc5c(cc4nc3s2)OCO5)cc1Cl,3%
CCC(Sc1nc(C)cc(=O)[nH]1)C(=O)Nc1sc2c(c1C#N)CCCC2 (centres undefined),-7%
COCCOc1ccc(C(F)(F)F)cc1NC(=O)COC(=O)c1ccc(N2CCCC2=O)cc1,-10%
O=C(CSc1nnc(Cc2ccccc2)n1-c1ccc(Cl)cc1)N1CCOCC1,-22%
O=C(NCCC1=CCCCC1)C1CC(=O)N(Cc2ccccc2)C1 (centres undefined),-6%
O=C(C[n+]1cccc(NC(=O)c2ccccc2)c1)c1ccccc1,-3%
CC(C)c1nnc(N2C(=O)c3oc4ccccc4c(=O)c3C2c2ccccc2F)s1 (centres undefined),-9%
COc1cccc(-c2cc(NCCc3c[nH]c4ccc(OC)cc34)ncn2)c1,u
COc1ccc(C(=O)Nc2ccc(S(=O)(=O)NCc3ccco3)cc2)cc1OC,6%
CCC(=O)c1ccc(OCC(=O)Nc2nc(-c3cccnc3)cs2)cc1,-3%
COc1cc(O)cc2occ(-c3ccc(O)cc3)c(=O)c12,-11%
COc1ccccc1CNC(=O)c1c(O)c2cc(OC)c(OC)cc2[nH]c1=O,-12%
Cc1cc(C(=O)COC(=O)c2ccc([N+](=O)[O-])o2)c(C)n1CC1CCCO1 (centres undefined),-13%
CC[C@]12c3[nH]c4ccc(OC)cc4c3CCN1C(=O)C(CC(=O)NC/C=C(\C)CCC=C(C)C)C[C@@H]2C(=O)N1CCN(C(=O)C2CC2)CC1 (some centres undefined),-16%
CSc1nc(Cc2ccccc2)nc2ccccc12,-9%
Nc1nnc(CC(=O)N/N=C/c2ccccc2OCc2ccccc2F)s1,15%
O=C1NC(=O)C2(CCC(C(=O)O)C2)N1 (centres undefined),1%
O=C(c1ccco1)N1CCN(C2c3ccccc3-c3ccccc32)CC1,-3%

# Among those listed so far, 2 contain a cyano group:
SMILES,VDR inh
COc1ccccc1N=Cc1c(C)c(C#N)c2[nH]c3ccccc3n2c1=O,22%
CCC(Sc1nc(C)cc(=O)[nH]1)C(=O)Nc1sc2c(c1C#N)CCCC2 (centres undefined),-7%

# The results go on.
SMILES,VDR inh
COc1ccc(C(=O)Nc2ncc3c(n2)CC(C)CC3=O)cc1 (centres undefined),-5%
CCCCCCSc1nsc(NC(=O)CC(C)C)n1,8%
Cc1cc(CN(C)C(=O)CC2C(=O)NCCN2CC(c2ccccc2)c2ccccc2)on1 (centres undefined),-11%
O=S(=O)(NC1CCN(S(=O)(=O)c2c(F)cccc2F)CC1)c1ccc2c(c1)OCCO2,4%
COC(=O)CN(C#N)c1nc(N(C)C)nc(N(C)C)n1,-1%
Cc1ccc2cc(CN(Cc3cccs3)Cc3nnnn3CC3CCCO3)c(=O)[nH]c2c1 (centres undefined),-13%
Cc1ccc(SCC(=O)Nc2cccnc2)cc1,1%
Nc1nc(N)nc(-c2ccccn2)n1,-9%
O=C(CSc1n[nH]c(-c2ccc(S(=O)(=O)NC3CCCCC3)cc2)n1)N1CCCC1,6%
CCn1c2ccccc2c2cc(NC(=O)CSc3nccc(=O)[nH]3)ccc21,-20%
CCC(C)c1ccc(S(=O)(=O)N2CC(=O)Nc3ccccc32)cc1 (centres undefined),-26%
Cn1nc(C(=O)Nc2ccccc2)c2c1-c1ccccc1S(=O)(=O)C2,8%
CC1CN(CC(=O)Nc2cccc(C(=O)Nc3cccc(C(F)(F)F)c3)c2)CC(C)O1 (centres undefined),-6%
C=CCOc1ccc(C=Nc2ccc(OC)cc2)c(O)c1,4%
COc1ccc2nc(SCC(=O)Nc3ccc4c(c3)OCCO4)[nH]c2c1,24%
COc1ccc(C(=O)C(C)OC(=O)c2cccc(S(=O)(=O)Nc3c(C)n(C)n(-c4ccccc4)c3=O)c2)cc1 (centres undefined),-9%
COc1ccc(OC)c(NC(=O)C2CC2c2ccccc2)c1 (centres undefined),-16%
COc1ccccc1CNC(=O)C(NC(=O)c1ccccc1C)C(C)C (centres undefined),10%
Cc1ccc2c(CC(=O)N3CCN(S(=O)(=O)c4ccccc4)CC3)coc2c1,5%
Cc1ccc(-c2cc(C(=O)N3CCCC3)no2)cc1,1%
Cc1c(CNCCc2ccc(Cl)cc2)c(C(=O)O)c(C)n1Cc1ccccc1,-7%
COc1ccc(-c2cn3nc(SCC(=O)Nc4ccc(C)c(Cl)c4)ccc3n2)cc1,15%
COC(=O)c1sccc1NC(=O)c1ccncc1,-14%
Cc1ccc(S(=O)(=O)N[C@H](C(=O)OCn2nnc3ccccc3c2=O)C(C)C)cc1,-6%
O=C(NC1(C(F)(F)F)NC(=O)N(Cc2cccnc2)C1=O)c1cccs1 (centres undefined),4%
CCNc1nc(SC(C)C(=O)Nc2ccccc2)nc(N(C)C)n1 (centres undefined),12%
CC(=O)Nc1ccc(OCC(O)CN2CCN(Cc3ccccc3)CC2)cc1 (centres undefined),2%
O=C(NC(=S)N1CCCCC1CO)C12CC3CC(CC(C3)C1)C2 (centres undefined),-1%
COc1cc(NC(=O)c2ccc(-c3csc(C)n3)cc2)c(OC)cc1Cl,0%
CNC(=S)Nc1sc2c(c1C(=O)OC)CCC2,-2%
COc1ccc(C(=O)NC(=S)Nc2nc(-c3ccc(OC)c(Br)c3)cs2)cc1Br,15%
CCOc1ccc(S(=O)(=O)NCCC(=O)Nc2ccncc2)cc1,-13%
CCOC(=O)c1cccc(NC(=O)c2oc3c(c2C)-c2nn(CC)cc2CC3)c1,-4%
CCN(C(=O)COC(=O)c1ccc(N2C(=O)c3ccccc3C2=O)cc1)C1CCS(=O)(=O)C1 (centres undefined),-8%
Cc1ccc(C(=O)Nc2ccc3c(c2)ncn3C)cc1,-7%
COc1cc(S(=O)(=O)N2CCCN(C)CC2)ccc1NC(C)=O,-1%
Cc1cc(-c2ccccc2)c(C#N)c(=S)[nH]1,-19%
O=C(Cc1ccccc1Cl)Nc1cccc(S(=O)(=O)N2CCCCCC2)c1,-14%
CC(=O)c1cccc(NC(=O)Cc2ccc3c(c2)CCCC3)c1,-4%
Cc1cccc(NS(=O)(=O)c2c(C)noc2C)c1,4%

# Sorted by the number under VDR inh (rising): 3 from the list above.
compound | VDR inh
Cc1cc(-c2ccccc2)c(C#N)c(=S)[nH]1 | -19%
CCOc1ccc(S(=O)(=O)NCCC(=O)Nc2ccncc2)cc1 | -13%
CCN(C(=O)COC(=O)c1ccc(N2C(=O)c3ccccc3C2=O)cc1)C1CCS(=O)(=O)C1 (centres undefined) | -8%

# Continuation:
SMILES,VDR inh
Cc1ccc(S(=O)(=O)Nc2c(C)n(C)n(-c3ccccc3)c2=O)cc1C(=O)OCC(=O)N1CCCC(C)C1 (centres undefined),-9%
CCCN(CC(=O)Nc1ccccc1C)C(=O)c1ccc(Cl)c(S(=O)(=O)N2CCCC2)c1,4%
Cc1ccc2c(C)c(C(=O)N(Cc3ccc(N(C)C)cc3)C3CCS(=O)(=O)C3)oc2c1 (centres undefined),17%
Cc1ccc(N2CC(C(=O)NC3=NCCS3)CC2=O)cc1C (centres undefined),6%
Cc1ccc(S(=O)(=O)N2CCC(C(=O)N(C)C3CCS(=O)(=O)C3)CC2)cc1 (centres undefined),-13%
Cn1c(N2CCOCC2)c(/C=N/OC(=O)c2ccc(F)cc2)c2ccccc21,-4%
Oc1cccc(Nc2ncnc3c2oc2ccccc23)c1,-1%
Cc1ccc([N+](=O)[O-])cc1NC(=O)c1cccs1,-16%
CCn1c(C(=O)NCc2cccnc2)cc2sc(Cl)cc21,-4%
NNC(=O)Cn1c2ccccc2c2ccccc21,5%
CCCCN(CCCNC(=O)CN1C(=O)COc2ccccc21)c1ccccc1,5%
CC(C)Sc1nc(N)nc2c1ncn2C1OC(CO)C(O)C1O (centres undefined),-4%
Cc1cc(C(=O)N(Cc2nnc(-c3ccc(Cl)cc3)o2)C(C)C)c2ccccc2n1,-8%
Cc1cc(O)cc(=O)n1C,-7%
CCc1c(C)[nH]n(CCC#N)c1=O,-19%
O=C(c1ccccc1NS(=O)(=O)c1ccc(F)cc1)N1CCOCC1,4%
Cc1ccc(C)c(NC(=O)CN(C)C(=O)c2ccc(Cl)nc2)c1,29%
CCOc1ccc(S(=O)(=O)N(CC)CC(=O)NCc2ccccn2)cc1C,5%
CC(=O)CSc1nsc(SCC(C)=O)c1C#N,-14%
CC(O)CNC(=S)Nc1ccccc1 (centres undefined),0%
O=C(NC1CC1)c1ccc(S(=O)(=O)NCC2CCCCC2)cc1,14%
CC1(C)Nc2ccccc2C(=O)N1NS(=O)(=O)c1ccccc1,-4%
O=C1CSC(c2ccco2)N1 (centres undefined),12%
COc1cc(OC)cc(-c2c(C#Cc3ccsc3)c3cc(-c4cc(F)cc(F)c4)ccc3n2C)c1,-11%
O=C(Nc1cccc([N+](=O)[O-])c1)c1ccc2ccccc2c1O,-12%
COC(=O)[C@@]1(Cc2ccccc2)[C@H]2C(=O)N(C)C(=O)[C@H]2[C@H]2CN=C(SC)N21,14%
CCc1c(C)c2cc(Cl)c(O)c(CN(CC)CC)c2oc1=O,8%
COc1ccccc1Nc1ccc(NC(=O)c2cccc([N+](=O)[O-])c2C)cc1,-25%
Cc1cc(OCC(=O)NCc2ccccn2)c2c(C)c(Cc3ccccc3)c(=O)oc2c1,-7%
NC(=O)C1CCN(C(=O)c2cn(-c3ccccc3)nc2-c2cccnc2)CC1,-13%
CSc1ccc(CN2CCC(C(=O)NCc3ccc(C)cc3)CC2)cc1,11%
O=C(Nc1ccccc1Cl)NC1(C(=O)NCc2ccncc2)CCCCC1,-2%
O=C(O)C1CCCCC1C(=O)Nc1nc(-c2ccc(Cl)s2)cs1 (centres undefined),-1%
Cc1cccc(N(C(=O)c2csnn2)C(C(=O)NCc2ccccc2)c2ccc(C)o2)c1 (centres undefined),11%
Cc1ccc(S(=O)(=O)NC(Cc2ccccc2)C(=O)O)cc1C (centres undefined),-18%
COc1ccc(C(=O)COC(=O)CN2C(=O)NC3(CC(C)CC(C)(C)C3)C2=O)c(OC)c1 (centres undefined),-11%

# An excerpt; count on the stated rates, not on these rows.
